ClpP mod: qHTS Assay for Activators of ClpP; purified B. subtilis ClpP, FRET peptide cleavage, 20 min; hit rate 1.9% among 340,000; ATP-dependent Clp protease proteolytic subunit (Bacillus subtilis (strain 168)), P80244; AID 651965, 2013; Potency, µM (top dose mostly 57.5 µM), for inactives: top-dose activity change, negative = active; active = well fitted falling curve with a large enough effect; inconclusive = small, poorly fitted or top-dose-only effect; inactive = no such curve, though single readings can be large or run the other way; further: the source files actives as falling curves though it sought activators and does not explain the sign; nearly all actives have a fitted effect of over 65% in size; many hits overshoot -100%
Target sequence (P80244 whole entry, looked up): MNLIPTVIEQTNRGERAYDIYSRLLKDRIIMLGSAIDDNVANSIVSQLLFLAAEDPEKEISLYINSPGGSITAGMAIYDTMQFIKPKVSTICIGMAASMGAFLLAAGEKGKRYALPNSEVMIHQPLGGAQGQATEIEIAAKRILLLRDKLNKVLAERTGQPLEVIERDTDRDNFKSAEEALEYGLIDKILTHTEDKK
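Buffer: 100 mM Tris/HCl pH8, 100 mM KCl, 0.05% low protease BSA, 2.5% glycerol, 0.01% Tween-20. ClpP 10 microg/mL final; 20 min RT; delta FRET normalized to ADEP and DMSO controls.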
PINK1 expr mod: modulators of PINK1 expression | PINK1 immunofluorescence, high-content cytometry, 24 h | Potency, µM (highest dose often 76.6 µM), for inactives: top-dose activation (PINK1 increase), most hits filed as activators | hit rate 0.2% among 410,000; active = well fitted activation curve with a large enough effect; inconclusive = small, poorly fitted or top-dose-only effect; inactive = flat fitted curve, though single readings scatter; cell line not stated here;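 further: % of control where 0% means no effect; nearly all actives have a fitted effect of over 65% in size; a mitochondrial uncoupler was the plate control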
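Measures PINK1 amount and localization on or inside mitochondria by immunofluorescence. Stable cells get compounds at 5 concentrations for 24 hours before fixation and staining; CCCP controls included.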
* = called active by the depositor; u = inconclusive; & = joins results of further samples. Potency means the concentration at half of the fitted maximal effect. Not all compounds are listed, so the mix of outcomes need not match the whole.

SMILES | ClpP mod | PINK1 expr mod
Cc1ccc(C)c(N2CCN(C(=O)c3cc(C)nc4c3c(C)nn4-c3cccc(F)c3)CC2)c1 | u | 0.7%
COc1ccc(CC(=O)N2CC(=O)Nc3ccc(Br)cc3C2c2ccc(F)cc2)cc1 (stereo not given) | -2.4% | -1.0%
Cc1ccccc1-c1nc2scc(CCNC(=O)c3ccco3)n2n1 | -2.6% | -0.5%
O=NN(CCF)C(=O)NC1CCS(=O)(=O)CC1 | 0.0% | -0.9%
CCNc1nc(OC)nc(Oc2ccc(=O)[nH]n2)n1 | -3.2% | -0.3%
Cc1c(CNC2CCC(C)CC2)c(C(=O)O)c(C)n1Cc1ccccc1F (stereo not given) | -2.9% | -0.2%
COC(=O)c1sc2cccc(F)c2c1S(=O)(=O)N1CCN(c2cccc(C)c2)C(C)C1 (stereo not given) | -0.4% | 0.1%
CCOc1ccc(C(=O)Nc2c(C(=O)N3CCN(c4ccccc4F)CC3)oc3ccccc23)cc1 | -5.7% | -1.1%
CCC(=O)N1CCc2cc(CNC(=O)Nc3cc(C)ccc3C)ccc21 | -0.8% | 0.1%
CCC(=O)Nc1ccc(C)cc1-c1nc2ccccc2n(CC(=O)Nc2ccccc2Cl)c1=O | -1.7% | 0.2%
COc1ccc(Nc2ncnc3onc(C)c23)c(OC)c1 | u | -5.5%
O=C(Nc1ccc2oc(-c3ccccc3F)nc2c1)c1ccccc1Cl | 4.4% | -0.3%
O=C(CSc1nnc(NC(=O)Nc2ccccc2)s1)Nc1cccc(F)c1 | -0.7% | 4.8%
COc1ccccc1CCNC(=O)C(=O)NCC(c1cccs1)S(=O)(=O)c1ccccc1 (stereo not given) | 0.0% | -0.4%
CCCCCOC(=O)c1ccc(OC(=O)c2sc3ncn(Cc4cccc(F)c4)c(=O)c3c2C)cc1 | 1.7% | -0.4%
CCOC(=O)C1CCN(S(=O)(=O)c2cc(-c3onc(C)c3C)ccc2C)CC1 | 0.0% | 7.8%
CC(C)(C(=O)NO)c1ccccc1 | -0.7% | 1.0%
CN(C)c1ccc(CNC(=O)C2CCCN(S(=O)(=O)c3ccc4c(ccn4C)c3)C2)cc1 (stereo not given) | 2.8% | 3.1%
Cc1ccccc1OCc1ccc(-c2nc(C#N)c(NCCCN(C)C)o2)o1 | 4.0% | 1.0%
Nc1nc(NCc2ccc(Cl)c(Cl)c2)c2[nH]cnc2n1 | -0.3%&0.6% | 0.2%&1.1%
CC(C)CCNC(=O)c1ccc(Cn2c(SCC(N)=O)nc3ccccc3c2=O)cc1 | 6.5% | -3.4%
CCN(CC)S(=O)(=O)c1ccc2c(c1)c(=O)c(C(=O)N1CCN(c3cc(C)ccc3C)CC1)cn2C | -1.2% | 1.5%
Cc1cccn2c(=O)c(C(=O)NCc3ccc(F)cc3)c(O)nc12 | u | -0.5%
CCN(CCCNC(=O)CSc1cc(=O)n(C)c2ccccc12)c1ccccc1 | -0.1% | 1.1%
CCOc1ccc(Sc2cc(C(=O)NC(C)CC)c3ccccc3n2)cc1 (stereo not given) | -4.8% | -2.3%
New compounds follow:
SMILES | ClpP mod | PINK1 expr mod
Cc1cccc(N2CCN(C(=O)CN3C(=O)COc4ccc(S(=O)(=O)N5CCCC5)cc43)CC2C)c1 (stereo not given) | -2.6% | 0.3%
Cc1cccc(CNC(=O)c2cnc3c(-c4cccc(C)c4)c(C)nn3c2C)c1 | -0.7% | 0.6%
COC(=O)c1ccc(NC(=O)CN(Cc2ccccc2)S(=O)(=O)c2ccc(Cl)cc2)cc1 | 0.3% | 3.2%
CCc1cccc(NC(=O)C(CC)n2nc(C)c3sc4ccccc4c3c2=O)c1 (stereo not given) | -4.0% | 2.1%
CC(=O)Nc1nnc(SCc2cc(=O)c3cc(C)ccc3[nH]2)s1 | -0.2% | 0.6%
COc1ccc(NC(=O)C2=CC(c3ccc4c(c3)OCO4)=NS(=O)(=O)N2C)cc1OC | -0.9% | 0.0%
O=C(C[n+]1ccccc1Cl)c1ccc2ccccc2c1 | -18% | 0.7%
Cc1nc2sc(C(=O)NCc3ccc(Cl)cc3)c(NC(=O)c3ccccc3)c2c(C)c1C | -3.3% | 4.8%
COc1ccc(N(CC(=O)NCc2ccccc2Cl)S(=O)(=O)c2c(C)[nH]c(=O)[nH]c2=O)cc1 | 0.4% | 4.6%
Cc1ccc(S(=O)(=O)N2CCN(C(=O)c3cc(-c4ccc(Br)cc4)n[nH]3)CC2)c(C)c1 | -0.5% | -1.4%
COc1cccc(OC)c1C(=O)NCCc1csc(-c2ccc(Cl)cc2)n1 | -9.3% | 0.4%
O=C(CCn1c(=O)c2cccn2c2cccnc21)N1CCN(c2ccccc2F)CC1 | -15% | 0.6%
CCOC(=O)c1cccc(NC(=O)COc2ccc3c(C)cc(=O)oc3c2)c1 | -27% | 4.8%
CCn1c(=N)c(C(=O)NC2CCCC2)cc2c(=O)n3cc(C)ccc3nc21 | 1.6% | -0.1%
COc1ccc(-c2nc3scc(CCNC(=O)Cc4ccc(F)cc4)n3n2)cc1 | -0.6% | 1.0%
CCc1ccccc1NC(=O)Cn1c(=O)n(CCCS(=O)(=O)C2CCCCC2)c(=O)c2ccccc21 | -4.8% | 0.3%
C[C@@H]1COc2cc(N3CCN(Cc4ccccc4F)CC3)ccc2S(=O)(=O)N1 | 1.0% | 0.0%
Cc1ccc(C(=O)Nc2nnc(S(=O)(=O)N3c4ccccc4CC3C)s2)cc1 (stereo not given) | -2.2% | 0.9%
CC1CCN(C(=O)c2c(NC(=O)c3ccccc3F)sc3c2CCC(C(C)(C)C)C3)CC1 (stereo not given) | -1.4% | 1.0%
COc1ccc2cc(C(=O)NCc3ccc4c(c3)CCN4C(=O)c3ccc(C)cc3)[nH]c2c1 | -5.7% | 1.4%
Cc1cc2oc(C(=O)Nc3ccc(S(=O)(=O)Nc4onc(C)c4C)cc3)cc(=O)c2cc1C | -3.2% | -2.3%
CN(C(=O)CSc1nnc(NC(=O)Nc2ccccc2)s1)c1ccccc1 | -0.7% | 1.5%
CC(=O)N1c2c(cc(Br)cc2S(=O)(=O)N2CCN(c3cccc(Cl)c3)CC2)CC1C (stereo not given) | -1.3% | 1.0%
Cc1ccccc1OCC(=O)Nc1nnc(SCc2cc(=O)n3cccc(C)c3n2)s1 | -19% | -7.0%
Cc1ccc(CN2COc3ccc4c(-c5ccccc5)cc(=O)oc4c3C2)cc1 | -5.4% | -0.4%
(further entries)
SMILES | ClpP mod | PINK1 expr mod
Cc1ccc(C)c(NC(=O)CSc2nc(-c3ccccc3)c(C#N)c(=O)[nH]2)c1 | -3.1% | 4.5%
CCn1cc2nc(SCc3cc(C)ccc3C)n(Cc3ccc(C)cc3)c(=O)c2n1 | -4.7% | 6.0%
CCN1c2ccccc2-c2nc(SCC(=O)Nc3ccc(C)c(Cl)c3)ncc2S1(=O)=O | u | 1.5%
COc1ccc(N(CC(C)C)S(=O)(=O)c2nnc(NC(=O)c3cccs3)s2)cc1 | -4.1% | 0.3%
CCOc1ccc(-n2c(Cc3ccccc3)nnc2SCc2nc(-c3ccccc3C)no2)cc1 | -3.7% | 0.1%
COc1ccc(-c2ccc(=O)n(CC(=O)Nc3ccc(N(C)C)cc3)n2)cc1 | -0.1% | -0.9%
CCn1cc(C(=O)N2CCN(c3ccc(OC)cc3)CC2)c(=O)c2cc(S(=O)(=O)N(C)C3CCCCC3)ccc21 | 0.1% | 0.0%
Cc1cccc(C)c1NC(=O)C1c2ccccc2OCC(=O)N1CCc1ccccc1 (stereo not given) | -4.3% | 2.5%
O=C(CSc1nc(=O)[nH]c2c1CCCC2)Nc1cc(C(F)(F)F)ccc1Cl | -5.2% | -0.1%
O=C(CSc1nnc(-c2ccccc2Br)n1-c1ccccc1)c1ccc(F)cc1 | -1.4% | -1.1%
Cc1cccc(C(=O)NCCc2nc3ccccc3n2Cc2ccccc2Cl)c1 | -1.9% | 5.2%
CCOc1ccccc1NC(=O)Cn1c(=O)nc(-c2ccccc2F)c2cc(Cl)ccc21 | -5.2% | 4.5%
c1coc(CNc2nc[n+]3c4c2ncn4CC3)c1 | 3.6% | 2.0%
Clc1cccc(N2CCN(c3ncnc4c3nc3n4CCCC3)CC2)c1 | -17% | 3.8%
CCOc1ccc(OCC)c(-n2cnnn2)c1 | -3.4% | -1.1%
CC1(C)CC(=O)C2=C(C1)NC(Nc1nc3ccccc3o1)=NC2c1cccc(F)c1 (stereo not given) | u | 1.6%
Cc1ccc(-n2nc(C)c3c(C)c(CCC(=O)NCc4ccccc4Cl)c(C)nc32)cc1C | -26% | 0.0%
CCOc1ccc(NC(=O)Cn2c(=O)n(CCCCC(=O)NCCc3ccc(Cl)cc3)c(=O)c3ccccc32)cc1 | -1.6% | -0.6%
COc1ccccc1Nc1nc(-c2ccc(F)cc2)c2c(n1)-c1ccccc1OC2 | -9.5% | 0.1%
Cc1ccc(Cl)cc1N1CCN(C(=O)c2ccc(NC(=O)c3nsc4ccccc34)cc2)CC1 | u | -1.1%
COc1ccc(OC)c(-c2noc(N3CCN(c4cc(Cl)ccc4C)CC3)n2)c1 | u | 1.3%
Cc1ccccc1NS(=O)(=O)c1ccc2[nH]cc(C(=O)NC3CCCCC3)c(=O)c2c1 | -26% | 1.8%
Cc1csc2nc(-c3cccc(NC(=O)c4ccc(S(N)(=O)=O)cc4)c3)cn12 | 0.8% | -0.3%
CCN(C)C1CN(Cc2cn(Cc3ccc(C)cc3)nn2)S(=O)(=O)C1 (stereo not given) | 0.3% | -1.0%
Cc1oc(-c2ccccc2)nc1CNS(=O)(=O)c1ccc(Cl)cc1 | -4.0% | 2.4%

Brought forward from above: 5 compounds, followed by the next part.
SMILES | ClpP mod | PINK1 expr mod
COc1ccc(OC)c(-c2noc(N3CCN(c4cc(Cl)ccc4C)CC3)n2)c1 | u | 1.3%
Cc1ccccc1NS(=O)(=O)c1ccc2[nH]cc(C(=O)NC3CCCCC3)c(=O)c2c1 | -26% | 1.8%
Cc1csc2nc(-c3cccc(NC(=O)c4ccc(S(N)(=O)=O)cc4)c3)cn12 | 0.8% | -0.3%
CCN(C)C1CN(Cc2cn(Cc3ccc(C)cc3)nn2)S(=O)(=O)C1 (stereo not given) | 0.3% | -1.0%
Cc1oc(-c2ccccc2)nc1CNS(=O)(=O)c1ccc(Cl)cc1 | -4.0% | 2.4%
CCCOc1ccc(C2=NC(c3ccncc3)=Nc3ccc(C)cc3N2)cc1 | -0.9% | 0.8%
Cc1cc(NC(=O)CN(c2cccc(C)c2C)S(=O)(=O)c2ccccc2)ccc1Br | -6.1% | 1.3%
COc1cccc(-c2nc3c(c(C)nn3-c3ccccc3)c3cc(OC)c(OC)cc23)c1 | 4.5% | 1.1%
CCOC(=O)c1c(C)[nH]c(CCC(=O)NCCCN2CCN(c3ccc(F)cc3)CC2)c1C | 2.4% | 0.0%
O=C(CC(c1cccs1)N1Cc2ccccc2C1=O)Nc1ccc(F)cc1F (stereo not given) | -6.2% | -4.2%
CCc1ccc(C(=O)c2cn(CC(=O)Nc3ccc(F)c(F)c3)c3cc(OC)c(OC)cc3c2=O)cc1 | -4.5% | 3.5%
CCc1ccc(CN(Cc2ccco2)C(=O)c2ccccc2Cl)cc1 | 1.2% | 0.7%
CC1=C(C#N)C(NC(=O)c2ccccc2)(C(F)(F)F)C(=O)N1 (stereo not given) | -2.1% | -0.7%
Cc1ccc2nc(NC(=O)c3cc(=O)c4cc(C)c(C)cc4o3)sc2c1 | -2.1% | 0.7%
CCOC(=O)CSc1nc2ccc(NC(=O)COc3ccccc3C)cc2s1 | 3.7% | 2.6%
Fc1ccc(-c2cc3ncc4c(n3n2)-c2cc(Cl)ccc2OC4)cc1 | -5.5% | 0.8%
CC(C)NC(=O)C1CCN(C(=O)c2cc3sccc3n2Cc2ccc(Cl)cc2)CC1 | -0.5% | -0.2%
Cc1cccc(C)c1OCCn1c(CCNC(=O)C2CCCCC2)nc2ccccc21 | 3.3% | -0.5%
COc1cc(CN2CCc3nc(Nc4ccc5c(c4)OCCO5)ncc3C2)cc(OC)c1OC | -0.6% | 5.7%
COc1cc(Cl)c(NC(=O)CCS(=O)(=O)c2ccc3c(c2)NC(=O)CO3)c(OC)c1 | 0.4% | 4.2%
Cc1cccc(-n2c3nc(=O)[nH]c(=O)c-3cc3c(Cl)cccc32)c1C | 5.1% | 6.1%
Cc1ccc(C)c(NC(=O)c2cnn(-c3ccc(F)cc3F)c2C2CCNCC2)c1 | -6.8% | 2.1%
COc1ccc(C(=O)N2CCc3cc(OC)c(OC)cc3C2COc2ccccc2OC)cc1 (stereo not given) | 0.8% | -3.3%
COCCCNC(=O)CSc1nc2cc3c(cc2c(=O)n1CCCCCC(=O)NCc1ccc(OC)cc1)OCO3 | -0.3% | 0.6%
COc1ccc2oc(=O)c(-c3nc(-c4cccs4)no3)cc2c1 | -11% | 1.3%
Cc1cccc(N2CCN(c3ccc4cc(S(=O)(=O)N5CCC(C)CC5)ccc4n3)CC2)c1C | -8.5% | -0.5%
CCOc1ccc(S(=O)(=O)N(CC(=O)NCc2ccccc2OC)c2ccccc2)cc1 | 0.9% | 6.9%

For reference, some entries already given:
SMILES | ClpP mod | PINK1 expr mod
COc1ccc(C(=O)N2CCc3cc(OC)c(OC)cc3C2COc2ccccc2OC)cc1 (stereo not given) | 0.8% | -3.3%
COCCCNC(=O)CSc1nc2cc3c(cc2c(=O)n1CCCCCC(=O)NCc1ccc(OC)cc1)OCO3 | -0.3% | 0.6%
COc1ccc2oc(=O)c(-c3nc(-c4cccs4)no3)cc2c1 | -11% | 1.3%
